Screening results as filed in PubChem BioAssay.
Mtb bLac sens – beta-lactam sensitization of Mtb H37Rv, H37Rv; inhibition, % at 25 µM; M. tuberculosis H37Rv growth with meropenem, percent inhibition; hits of this screen are not shown here; 0.27% of 330,000 active; AID 434955, 2010;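 active means about 74% or more and at least 40 points above the plate without the antibiotic, then above 30% in a dose series; inconclusive means first-round hits that could not be retested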;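 further: growth measured after seven days incubation then overnight dye step; 0% = bacteria only wells and 100% = bacteria with antibiotic; twin plates without the antibiotic show which effects depend on it; some results filed as inactive read as strong as hits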
YopH inh – YopH tyrosine phosphatase inhibitors, primary screen, biochemical, fluorescence Ex485/Em525 | YopH tyrosine phosphatase [Yersinia enterocolitica] | 0.16% of 140,000 active | inhibition, %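 (about 10 µM by stock and volumes)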 | AID 898, 2007;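 active means inhibition of 50% or more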;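 further: controls were vehicle for no effect and minimum signal wells for full effect; inactives centre near -20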
RecA intein inh – Mtb RecA intein splicing inhibitors, primary screen, biochemical, fluorescence, HTS | Protein RecA (Mycobacterium tuberculosis (strain ATCC 25618 / H37Rv)), P9WHJ3 | cell-free RecA intein splicing | inhibition, %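 (about 9 µM by stock and volumes)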 | 0.75% of 290,000 active | AID 2221, 2009; in the data active means inhibition above about 30%; inconclusive means no clear call, values can overlap the other calls;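 further: 0% = vehicle wells and 100% = reference inhibitor control wells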
Target sequence (P9WHJ3 whole entry, looked up): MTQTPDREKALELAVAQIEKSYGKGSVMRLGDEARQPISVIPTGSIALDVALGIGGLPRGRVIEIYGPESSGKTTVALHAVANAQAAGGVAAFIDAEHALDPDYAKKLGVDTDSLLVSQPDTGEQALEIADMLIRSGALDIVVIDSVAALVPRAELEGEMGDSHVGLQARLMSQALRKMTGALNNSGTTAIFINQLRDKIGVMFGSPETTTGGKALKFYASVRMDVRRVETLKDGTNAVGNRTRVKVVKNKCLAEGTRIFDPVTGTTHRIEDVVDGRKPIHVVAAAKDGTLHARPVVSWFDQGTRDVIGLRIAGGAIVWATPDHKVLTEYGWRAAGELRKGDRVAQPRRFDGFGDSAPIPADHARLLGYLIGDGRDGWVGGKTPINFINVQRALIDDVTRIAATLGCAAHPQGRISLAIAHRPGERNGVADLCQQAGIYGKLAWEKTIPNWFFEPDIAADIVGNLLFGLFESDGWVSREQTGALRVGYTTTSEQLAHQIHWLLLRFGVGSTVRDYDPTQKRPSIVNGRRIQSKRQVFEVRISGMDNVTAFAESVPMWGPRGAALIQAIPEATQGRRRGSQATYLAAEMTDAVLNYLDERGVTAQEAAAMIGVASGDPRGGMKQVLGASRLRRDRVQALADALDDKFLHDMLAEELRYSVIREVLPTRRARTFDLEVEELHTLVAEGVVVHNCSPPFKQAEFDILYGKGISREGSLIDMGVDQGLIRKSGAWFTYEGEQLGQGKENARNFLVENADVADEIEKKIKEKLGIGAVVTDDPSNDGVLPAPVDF
Mtb H37Rv – M. tuberculosis H37Rv growth inhibitors, H37Rv strain (AID 1626); M. tuberculosis H37Rv growth inhibition; higher % means a stronger effect; inhibition, % at 10 µM, or IC50 in µM where a hit was titrated; 0.95% of 220,000 active;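 active means confirmed in a dose series; inconclusive means inhibition above 80% but not taken into the dose series; inactive means below 80% or under 30% at every dose of the series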;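 further: bacteria incubated seven days before Alamar blue readout; 0% = bacteria only wells and 100% = bacteria with antibiotic wells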
Arbovirus anti – antivirals against arbovirus infection, primary screen, cell-based, full library, 10K replicate subset; arbovirus infection cell-based antiviral screen; 0.37% of 200,000 active; inhibition, % at 10 µM; AID 1251, 2008;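 active means inhibition from about 30%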;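 further: bluetongue infection of BSR cells; cell survival read as ATP light after 72 h; 0% = infected wells without compound and 100% = uninfected wells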
Arbovirus anti repeat – second read-out of Arbovirus anti, no call of its own (marks repeat the call); inhibition, %; measured here: 10K subset replicate screen; many hits read low in the repeat;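 first of two repeat runs on a subset; 0% = infected and 100% = uninfected wells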
* = called active by the depositor; ? = inconclusive; . = no result given; & = joins results of further samples. Not all compounds are listed; the hit share may differ from the screen's.

SMILES | Mtb bLac sens | YopH inh | RecA intein inh | Mtb H37Rv | Arbovirus anti | others
Cc1cccc(N2CC(C(=O)Nc3nnc(SCCN4CCOCC4)s3)CC2=O)c1 (centres undefined) | -3.9 | . | 1.4 | . | .
CC(=O)Nc1ccc(NC(=O)C(C)Sc2n[nH]c(=O)n2Cc2ccccc2)cc1 (centres undefined) | 0.9 | . | -4.3 | . | .
CCN(CC)C(=O)N1CCN(C)CC1 | -1.2 | . | -0.7 | -1.5% | 4.0
Cc1cc(C)n2nc(-c3ccc(F)cc3)nc2n1 | -2.1 | -21.9 | -1.5 | -7.4% | -0.9
Cc1nc2ccc(NC(=O)CS(=O)(=O)c3ccccc3)cc2s1 | 1.2 | . | -0.7 | . | .
O=C1CC(c2cccc([N+](=O)[O-])c2)c2c(ccc3ccccc23)N1 (centres undefined) | -7.8 | -13.3 | . | -3.0% | -10.8
COc1ccc(NC(=O)CNS(=O)(=O)c2cccs2)cc1 | -8.7 | -29.7 | 4.4 | -6.5% | 7.0
O=C(O)C1Nc2ccc(C(F)(F)F)cc2C2OCCC12 (centres undefined) | -1.6 | . | -0.9 | 2.0% | .
Cc1cc(OCC(=O)N2CCC(C(=O)O)CC2)c2c(C)c(C)c(=O)oc2c1 | -1.5 | . | -2.4 | . | .
COc1cccc(OC)c1OCCCCCCN1CCN(C)CC1 | 1.6 | . | 3.7 | . | .
Cc1[nH]n(-c2ccccc2)c(=O)c1N=Nc1nccs1 | 95.7 | -10.6 | 0.5 | 2.8µM* | -13.3
CC1CCN(CCCNC(=O)c2cc3c(Cl)nc4ccccc4c3s2)CC1 | 69.6 | . | -0.8 | 10.9% | -27.2
COc1ccc(-c2nc3c(c4nnc(SC(C)C(=O)Nc5ccc(C)cc5)n24)COC(C)(C)C3)cc1 (centres undefined) | 45.8 | -38.7 | 2.5 | 17.5% | 1.0
O=C1C2=C(SCCS2)C(=O)N1CCCO | -0.9 | -36.8 | . | . | 3.6 | Arbovirus anti repeat=-0.5
COc1ccc(N=C2SC(CC(=O)Nc3ccccc3F)C(=O)N2Cc2ccco2)cc1 (centres undefined) | 4.8 | -22.8 | 0.8 | 4.2% | -10.8
COC(=O)CS(=O)(=O)c1ccsc1C(=O)Nc1ccc(F)c(F)c1 | 2.6 | . | -2.4 | -3.8% | 13.3
CCCOc1c(OC)cccc1C1CC(=O)Nc2cc3c(cc21)OCO3 (centres undefined) | -4.8 | -1.1 | 3.7 | 1.7% | -22.2
CCOC(=O)C1CCN(C(=O)c2cccc(S(=O)(=O)N(C)C3CCCCC3)c2)CC1 | -3.3 | . | 0.7 | . | .
COc1ccc(NC(=O)Cn2nnc(C(=O)Nc3ccccc3C)c2N)cc1 | -2.0 | . | 2.4 | . | -2.5
O=c1[nH]c(SCc2ccccc2)nc2c1cnn2-c1ccc(F)cc1 | 4.2 | . | 1.9 | . | -0.6
Cc1ccc(C(=O)N2CCN(c3cccc(Cl)c3)CC2)cc1C | -0.6 | -13.5 | 6.6 | 5.7% | 6.2
Cc1c(NC(=O)C(C)OC(=O)c2cccc(S(=O)(=O)N(C)C)c2)c(=O)n(-c2ccccc2)n1C (centres undefined) | -0.6 | . | -3.2 | 4.5% | 12.1
CCN1CNC(=S)N(C(C)c2ccccc2)C1 (centres undefined) | -4.1 | -22.1 | 1.3 | 0.7% | -4.0
O=C(Cn1c(CO)nc2ccccc21)NCCc1ccccc1 | -5.8 | . | -0.7 | -5.8% | 2.1
N#CC1=C(N)NC(SCC(=O)Nc2ccccc2)=C(C#N)C12CCCCC2 | -11.5 | 6.4 | 3.1 | -1.2% | -18.4

Remaining list, next part
SMILES | Mtb bLac sens | YopH inh | RecA intein inh | Mtb H37Rv | Arbovirus anti | others
O=C(CSc1n[nH]c(=O)[nH]c1=O)N/N=C/C=C/c1ccccc1 | -2.9 | . | 1.5 | . | .
COc1ccc(NC(=O)COC(=O)CC23CC4CC(CC(C4)C2)C3)c([N+](=O)[O-])c1 | 10.4 | -6.4 | 1.5 | 0.6% | 27.4
O=C(NCCO)c1ccc2c3n(nc2c1)-c1ccccc1CO3 | -8.4 | . | -2.8 | -12.9% | .
COc1ccccc1/C=C/C(=O)c1cc(Br)ccc1OC(=O)c1ccco1 | 45.0 | -21.0 | 11.9 | . | .
O=c1c(O[C@@H]2O[C@H](CO)[C@@H](O)[C@H](O)[C@H]2O)c(-c2ccc(O)c(O)c2)oc2cc(O)cc(O)c12 | . | . | -3.2 | -4.2%&-7.9% | -21.2
Cc1ccc(C(=O)COC(=O)c2cccc(NC(=O)c3ccc([N+](=O)[O-])cc3[N+](=O)[O-])c2)cc1 | 99.7 | 13.9 | 2.7 | ? | -24.7
Cc1cccc(-n2ccnc2SCC(=O)Nc2cc(C)on2)c1 | -3.3 | -22.2 | -11.6 | -6.3% | 2.9
CCOC(=O)Nc1ccc(S(=O)(=O)Nc2nc(C)cc(C)n2)cc1 | 4.3 | -38.0 | -0.1 | 1.7% | -0.2
Cc1cc(CNC(=O)[C@H]2C[C@@H]2[C@H](NP(=O)(c2ccccc2)c2ccccc2)c2ccccc2)nn1C | 2.4 | -24.0 | . | 10.3% | 6.0
Cc1ccccc1CN(c1ccc(C(=O)N2CCc3ccccc3C2)cc1)S(C)(=O)=O | -3.4 | 1.9 | 8.8 | 0.2% | -11.7
COc1ccccc1-n1c(COc2ccccc2-c2ccccc2)nnc1SCC(=O)c1c(N)n(C)c(=O)n(C)c1=O | 7.7 | -20.8 | -5.0 | -0.2% | 1.2
COC(=O)[C@H](Cc1ccccc1)NC(=O)C1CCN(C(=O)[C@H](C)NS(=O)(=O)c2ccc(C)cc2)CC1 | 4.3 | . | -2.6 | . | .
CCc1[nH]nc2c1C(C(C)C)C(C#N)=C(N)O2 (centres undefined) | 10.8 | . | 2.7 | -1.6% | -13.2
CCN1CCN(C2CCCCC2NS(=O)(=O)c2ccccc2)CC1 (centres undefined) | -5.7 | . | 4.9 | . | .
O=C(Cn1c(=O)oc2ccccc21)Nc1nnc(N2CCCCCC2)s1 | -1.2 | -28.3 | -0.5 | -2.5% | 12.1
CN(C(=O)C1CCCO1)c1nnc(-c2cnccn2)s1 (centres undefined) | 2.9 | -11.8 | 0.3 | 0.3% | -1.1
O=C(Nc1ccc(Cl)cc1)NC1CCCC1Cc1ccco1 (centres undefined) | 27.6 | -16.9 | 17.2 | -8.1% | -24.1
CCN1C(=O)[C@H]2[C@@H](c3ccc(-c4cccc(Cl)c4)c(OC)c3)N[C@@](C)(C(=O)OC)[C@H]2C1=O | -10.8 | . | -0.2 | . | .
c1cc2c3c(cccc3c1)NC1(CCCCC1)N2 | 1.9 | 16.3 | 21.8 | -3.7% | -1.5
O=C(CCl)Nc1ccc(S(=O)(=O)Nc2nccs2)cc1 | 61.5 | . | 11.6 | . | .
C=CCn1c(N(C)C)nc2c1c(=O)[nH]c(=O)n2C | -3.3 | . | 4.1 | -0.7% | 1.1
O=C(NCCc1ccc(Cl)cc1)c1cc(S(=O)(=O)N2CCCCC2)c[nH]1 | -4.7 | . | 7.1 | . | .
COC(=O)CCc1c(C)nn(-c2ccccc2)c1C | -8.2 | -9.9 | 1.2 | 4.0% | -0.9
CCn1c(NC(=S)Nc2ccccc2)nc2ccccc21 | 97.5 | -54.3 | 1.9 | ? | -3.3
CC(c1ccc(C(C)(C)C)cc1)S(=O)CC(O)CO (centres undefined) | -9.2 | -15.5 | 1.1 | -7.5% | 6.2

Among those listed so far, 2 have a cyano group:
SMILES | Mtb bLac sens | YopH inh | RecA intein inh | Mtb H37Rv | Arbovirus anti | others
N#CC1=C(N)NC(SCC(=O)Nc2ccccc2)=C(C#N)C12CCCCC2 | -11.5 | 6.4 | 3.1 | -1.2% | -18.4
CCc1[nH]nc2c1C(C(C)C)C(C#N)=C(N)O2 (centres undefined) | 10.8 | . | 2.7 | -1.6% | -13.2

Next structures.
SMILES | Mtb bLac sens | YopH inh | RecA intein inh | Mtb H37Rv | Arbovirus anti | others
COC(=O)CN1C(c2cccc(Cl)c2)=Nc2ccc(Cl)cc2C1c1ccccc1 (centres undefined) | 72.7 | -11.4 | 25.3 | 11.9µM* | -17.5
COCCn1c(SCC(=O)Nc2ncc(C)s2)nc2sc3c(c2c1=O)CCC3 | . | -41.6 | 0.5 | -8.8% | 4.6
CC(C)(C#CC(O)(c1ccccc1)c1ccccc1)N1CCCC1 | -4.6 | . | -1.3 | 5.2% | -5.9
O=C(Cc1ccccc1)N/N=C/c1ccccn1 | -4.6 | -7.4 | 1.8 | -4.5% | .
CCOc1ccc(C2/C(=C(/O)c3ccc(F)cc3)C(=O)C(=O)N2CCCN(C)C)cc1 (centres undefined) | -5.9 | 0.7 | 2.5 | 5.1% | 13.2
CC(Sc1ccc(S(=O)(=O)N2CCOCC2)cc1[N+](=O)[O-])C(=O)O (centres undefined) | -4.0 | -51.4 | -0.2 | 5.4% | 2.6
CCn1c(=S)sc2c(=O)n(CC(=O)Nc3ccc(OC)c(Cl)c3)c(C)nc21 | -0.6 | . | 0.9 | . | .
Cc1ccc(NC(=O)Cn2nc(C)c3ccccc3c2=O)c(C)c1 | 3.9 | -29.4 | -1.3 | -7.5% | 7.2
NC(=O)c1ccc(C(F)(F)F)n(Cc2cccc(Cl)c2)c1=O | 23.3 | -0.8 | 0.7 | 17.3% | 4.4
COc1cccc(/C=N/n2c(SC)nnc2-c2ccccc2)c1OC | 0.9 | -24.0 | 1.8 | -6.5% | -12.5
CCN1CCN(c2c(Cl)cccc2NC(=O)c2ccco2)CC1 | 5.5 | -23.2 | 0.8 | 2.8% | -6.1
CCOC(=O)c1nnn(-c2nonc2N)c1-c1ccc(Cl)cc1 | 4.0 | . | -0.5 | 8.5% | 1.3
O=C(Nc1ccc(Cl)c(S(=O)(=O)Nc2ccccc2Cl)c1)c1cccs1 | -7.2 | -49.7 | 15.6 | 9.4% | 19.7
COc1ccc(NC(=O)Cc2nnc(SCC(=O)Nc3cc(C)ccc3OC)n2C)cc1 | 1.1 | -42.1 | -3.4 | -1.4% | -1.6
CCOC(=O)c1csc(NC(=O)c2ccc(S(=O)(=O)N(CC)CC)cc2)n1 | 1.0 | -19.9 | -0.5 | -0.4% | 2.1
CCOC(=O)c1c2ccc(OCC(=O)N/N=C/c3ccc(C)cc3)cc2n2ccccc12 | 0.4 | 15.2 | -2.7 | . | -1.4
Cc1cc(NC(=O)CSc2nnc(COc3cccc(C)c3C)n2C)no1 | 4.3 | -51.4 | 0.1 | -6.2% | -2.0
CCOc1ccc(C(=O)OC(C)CN2CCCCC2)cc1 (centres undefined) | 2.4 | . | -1.5 | . | .
Cc1cc(-c2nnc(SCC(=O)Nc3ccc(C(F)(F)F)cc3)n2C)no1 | -6.3 | . | 2.0 | 5.5% | .
CCN(CC)S(=O)(=O)c1ccc(N2CCOCC2)c(NC(=O)c2ccc(N3CCCC3=O)cc2)c1 | -4.5 | . | -2.6 | . | .
Cc1[nH]n(C)c(=O)c1[N+](=O)[O-] | 4.1 | . | -0.3 | -5.3% | .
O=C(NCCSc1c[nH]c2ccccc12)c1c(F)cccc1F | -3.0 | . | 1.9 | 4.4% | -6.0
CC1(C)C/C(=C(/C#N)C(N)=O)CCO1 | -10.1 | 15.8 | 2.0 | 2.4% | 9.8

Structures shown so far with an NH in an aromatic ring, in the order listed:
SMILES | Mtb bLac sens | YopH inh | RecA intein inh | Mtb H37Rv | Arbovirus anti | others
CC(=O)Nc1ccc(NC(=O)C(C)Sc2n[nH]c(=O)n2Cc2ccccc2)cc1 (centres undefined) | 0.9 | . | -4.3 | . | .
Cc1[nH]n(-c2ccccc2)c(=O)c1N=Nc1nccs1 | 95.7 | -10.6 | 0.5 | 2.8µM* | -13.3
O=c1[nH]c(SCc2ccccc2)nc2c1cnn2-c1ccc(F)cc1 | 4.2 | . | 1.9 | . | -0.6
O=C(CSc1n[nH]c(=O)[nH]c1=O)N/N=C/C=C/c1ccccc1 | -2.9 | . | 1.5 | . | .
CCc1[nH]nc2c1C(C(C)C)C(C#N)=C(N)O2 (centres undefined) | 10.8 | . | 2.7 | -1.6% | -13.2
C=CCn1c(N(C)C)nc2c1c(=O)[nH]c(=O)n2C | -3.3 | . | 4.1 | -0.7% | 1.1
O=C(NCCc1ccc(Cl)cc1)c1cc(S(=O)(=O)N2CCCCC2)c[nH]1 | -4.7 | . | 7.1 | . | .
Cc1[nH]n(C)c(=O)c1[N+](=O)[O-] | 4.1 | . | -0.3 | -5.3% | .
O=C(NCCSc1c[nH]c2ccccc12)c1c(F)cccc1F | -3.0 | . | 1.9 | 4.4% | -6.0
